SARS PLP yeast – SARS-CoV PLP inhibition in yeast; S. cerevisiae expressing SARS-CoV PLpro, growth rescue; control for the full effect not named in the record; actives 0.19% (n = 330,000); AID 485353; Potency, µM (top dose mostly 32.9 µM), for the others: at the highest dose activity, positive = growth rescue; active means well fitted rising curve with a large enough effect; inconclusive means small, poorly fitted or top-dose-only effect; inactive means no such curve, though single readings can be large or run the other way; also: 0% is about no effect; nearly all actives have a fitted effect of over 55% in size; growth read by luminescence after 48 h
Cruzain Triton – cruzain (T. cruzi) inhibition with detergent | actives 0.43% (n = 200,000) | P25779 | Potency, µM, for inactives: max response, negative = inhibition, actives largely listed as inhibitors | purified cruzain, Z-FR-AMC fluorescence, 0.01% Triton;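 also: plate controls were neutral wells for no effect and buffer without enzyme for full effect; nearly all actives have a fitted effect of over 40% in size; top concentration of the series not given in the record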
Target sequence (P25779 123-467 limits assumed): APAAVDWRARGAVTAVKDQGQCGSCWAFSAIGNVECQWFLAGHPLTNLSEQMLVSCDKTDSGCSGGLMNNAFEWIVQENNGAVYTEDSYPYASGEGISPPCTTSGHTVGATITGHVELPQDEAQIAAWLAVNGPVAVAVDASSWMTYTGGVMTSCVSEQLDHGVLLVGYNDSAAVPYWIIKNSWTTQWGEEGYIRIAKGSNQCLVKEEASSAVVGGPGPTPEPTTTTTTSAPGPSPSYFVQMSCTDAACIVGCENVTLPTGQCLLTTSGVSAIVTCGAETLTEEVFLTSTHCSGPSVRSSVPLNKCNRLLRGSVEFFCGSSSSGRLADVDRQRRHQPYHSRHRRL
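Steps: dispense cruzain (1.5 nM final) in acetate buffer pH 5.5 with DTT and 0.01% Triton X-100; pin-transfer compounds; incubate 15 min RT; add Z-FR-AMC (2 uM final); read fluorescence every 30 s, using the 60 s intensity change.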
Lassa entry inh – Lassa virus entry inhibition. Lassa virus pseudotype entry inhibition, cell reporter; control for the full effect not named in the record. Potency, µM (top dose mostly 37.9 µM), for inactives: at the highest dose activity change, negative = inhibition, actives largely listed as inhibitors. actives 1.2% (n = 300,000); active means well fitted inhibition curve with a large enough effect; inconclusive means small, poorly fitted or top-dose-only effect, or effect the other way; inactive means flat fitted curve, though single readings scatter; tested in HEK293 cells; also: % is scaled to controls: 0 for no effect and ±100 for the full control effect; nearly all actives have a fitted effect of over 50% in size; luciferase read-out
NS1 function inh – influenza NS1 inhibition | actives 0.4% (n = 270,000) | AID 2326 | Potency, µM (doses to about 46.1 µM), without a hit: top-dose activity, positive = more growth | S. cerevisiae slowed by influenza A NS1, growth recovery by OD600; active means well fitted rising curve with a large enough effect; inconclusive means small, poorly fitted or top-dose-only effect; inactive means no such curve, though single readings can be large or run the other way; also: nearly all actives have a fitted effect of over 50% in size
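S. cerevisiae expressing influenza A NS1, grown in glucose, washed, then diluted 1:100 into pH 6.0 -URA galactose medium with 23 nl compound. Growth recovery read as OD600; NS1-free strain serves as control.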
Cruzain noTriton – blocks cruzain activity in detergent-free assay | P25779 | purified cruzain, Z-FR-AMC fluorescence, no detergent | Potency, µM, without a hit: max response, negative = inhibition, most hits filed as inhibitors | actives 2.3% (n = 200,000) | AID 1476;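 also: plate controls were enzyme without inhibitor for no effect and buffer without enzyme for full effect; nearly all actives have a fitted effect of over 40% in size; top concentration of the series not given in the record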
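Purified cruzain at 1.5 nM, pre-incubated 15 min with compound at room temperature in 100 mM sodium acetate pH 5.5, 5 mM DTT, 0.00005% Triton X-100. Reaction started with 2 uM Z-FR-AMC; AMC fluorescence increase over 60 s gives rate.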
RE007 growth inh – less growth of the S. pombe RE007 Vpr strain | Potency, µM (top dose mostly 92.2 µM), inactives show at the highest dose activity change, negative = less growth | actives 0.21% (n = 360,000) | S. pombe RE007 Vpr strain, BacTiter-Glo ATP luminescence, 24 h; control for the full effect not named in the record; active = well fitted falling curve with a large enough effect; inconclusive = small, poorly fitted or top-dose-only effect; inactive = no such curve, though single readings can be large or run the other way;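 also: % is scaled to controls: 0 for no effect and ±100 for the full control effect; nearly all actives have a fitted effect of over 50% in size; the assay follows cell death caused by Vpr and the record does not say whether a fall means rescue or toxicity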
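Fission yeast strain RE007, carrying one chromosomally integrated HIV-1 vpr copy, was seeded at OD 0.01 in PMG+AL medium with 23 nL pinned compound. After 24 h at 30 °C and 99% humidity, viability was read by BacTiter-Glo luminescence.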
Marburg entry inh – Marburg virus entry inhibition; Marburg virus pseudotyped entry inhibition, cell reporter; control for the full effect not named in the record; about a third of the inactives were read at about 46 µM; AID 540276; actives 1.8% (n = 300,000); Potency, µM (doses to about 37.8 µM), for inactives: at the top dose activity change, negative = inhibition, usual class: inhibitors; active = well fitted inhibition curve with a large enough effect; inconclusive = small, poorly fitted or top-dose-only effect, or effect the other way; inactive = flat fitted curve, though single readings scatter; tested in HEK293 cells; about a fifth of its hits are not listed in these tables; also: % is scaled to controls: 0 for no effect and ±100 for the full control effect; luciferase read-out
StopGo reporter – FMDV 2A StopGo reporter, luciferase signal; human cells with a luciferase reporter of 2A StopGo recoding; control for the full effect not named in the record; Potency, µM (highest dose often 57.9 µM), without a hit: at the highest dose signal change, negative = less light; actives 1.2% (n = 410,000); AID 1159524; active = well fitted falling curve with a large enough effect; inconclusive = small, poorly fitted or top-dose-only effect; inactive = no such curve, though single readings can be large or run the other way; tested in HEK293T cells; also: % is scaled to controls: 0 for no effect and ±100 for the full control effect; nearly all actives have a fitted effect of over 45% in size; luciferase light after 4 h
* = called active by the depositor; u = inconclusive; x = no result given; & = joins results of further samples; [ ] = another dose, or the depositor's remark. Unless noted, calls follow the shape of the dose curve; as a rule, active = well fitted curve in the direction sought with a large enough effect; inconclusive = small, poorly fitted or top-dose-only effect, or another doubt; inactive = no such curve, though single readings can be large; an effect the other way counts as inactive or inconclusive. Potency is read from the fitted curve at half-maximal effect.

SMILES	SARS PLP yeast	Cruzain Triton	Lassa entry inh	NS1 function inh	Cruzain noTriton	RE007 growth inh	Marburg entry inh	StopGo reporter
CN1OC(COC(=O)c2ccccc2)CC1c1ccccc1 (stereo not given)	18%	-3.7%	5%	-9%	-6%	-12%	-2%	49%[activator]
Cc1ccc(C2=NC3(CCCCC3)NC2=S)cc1	7%	0.2%	2%	19%	-18%	8%	u	12%
O=C(CCc1ccccc1)NNC(=O)c1ccc(NC(=O)c2ccccc2)cc1	7%	u	4%	20%	u	-14%	15%	14%
COc1ccc(/C(O)=C/C(=O)C(=O)NNC(=O)C(O)(c2ccccc2)c2ccccc2)cc1	16%	-2.4%	3%	-11%	-7%	2%	u	-20%
Cc1cccc(CN2C(=O)CCSc3ccc(Cl)cc32)c1	-3%	-0.8%	-2%	4%	-6%	-14%	13%	-30%
CCOC(=O)c1cc(C)sc1N1C(=O)C2C3C=CC(C3)C2C1=O (stereo not given)	-1%	4.8%	0%	-1%	-3%	16%	-3%	10%
CN(CCc1ccccn1)C(=O)Nc1cccc(Cl)c1	-2%	x	2%	-4%	x	1%	2%	11%
COc1ccc(CNC(=O)N2CCN(C(=O)c3ccccc3)CC2)cc1	-2%	x	11%	x	x	13%	u	-18%
Cc1cc(C)cc(NC(=O)COC(=O)CCCNC(=O)c2ccc(Cl)cc2)c1	6%	-12%	-9%	-14%	u	-10%	3%	-16%
COc1cc(NC(=O)c2ccc(C(C)(C)C)cc2)c(OC)cc1NC(=O)CN1CCCCC1	1%	x	10µM*	2%	x	3%	u	u
CC1CCc2c(sc3nc(CSc4ncn[nH]4)[nH]c(=O)c23)C1 (stereo not given)	18%	-7.2%	-10%	-4%	4%	x	u	3%
CCn1c(C)c(C)c2cc(C(=O)N3CCN(c4cccc(C)c4C)CC3)ccc21	-28%	-3.3%	u	-12%	-25%	-6%	-19%&-19%[46.1 µM]	-3%&5%
O=C1NCC(O)=C1C=NCCO	7%	4.2%	1%	14%	-2%	-3%	17%	-4%
Cc1ccc(C)c(NC(=O)Nc2nnc(N(CC(C)C)CC(C)C)s2)c1	x	-6.0%	10%[46.1 µM]	x	6%	x	21%[46.1 µM]	-17%
CN1CC[n+]2cnc3ccccc3c21	2%	3.6%	8%	6%	-11%	-8%	9%	0%
COc1ccc(S(=O)(=O)N2CCN(c3cc(-c4ccccc4)nc4ncnn34)CC2)cc1	5%	-6.3%	u	-10%	1%	0%	u	u
COC(=O)Cn1c(CN2CCOCC2)nc2c1c(=O)[nH]c(=O)n2C	1%	-4.7%	x	4%	-12%	6%	x	4%
Cc1sc(NC(=O)C2=COCCO2)nc1-c1ccc(Cl)cc1	-2%	x	u	x	x	-1%	u	24%
CC(=O)N1N=C(c2c(-c3ccccc3)c3cc(Br)ccc3[nH]c2=O)CC1c1ccco1 (stereo not given)	1%	x	x	13%	x	2%	x	u
Cc1c(CNC(=O)c2c([N+](=O)[O-])cnn2C)cnn1C	1%	x	2%	x	x	19%	-28%[46.1 µM]	-6%
COc1ccc(CCNC(=O)Cc2ccc([N+](=O)[O-])cc2)cc1OC	0%	x	u	-1%	x	-6%	14%	-6%
Cc1ccc(-n2ncc3c(N(C)C)ncnc32)cc1Cl	x	1.1%	u	x	-9%	x	x	-62%
CC(=O)/C=C(\C)N=Nc1c(O)[nH]c2ccccc12	0%	x	-23%	-7%	x	6%	-2%[46.1 µM]	28%
CC(Sc1nnc(-c2cccnc2)n1C)C(=O)N1CCOCC1 (stereo not given)	1%	x	5%	x	x	12%	11%	0%
CC(=O)c1ccc(OCC(C)C)c(CC(C(N)=O)C(N)=O)c1	4%	0.0%	-14%	-5%	-1%	-12%	2%	x

(next part)
SMILES	SARS PLP yeast	Cruzain Triton	Lassa entry inh	NS1 function inh	Cruzain noTriton	RE007 growth inh	Marburg entry inh	StopGo reporter
Cc1[nH][nH]c(=O)c1N=Nc1ccccc1Cl	-3%	x	-12%	-5%	x	-14%	27%	53%[activator]
COc1ccc(C(=O)NC(=S)NNC(=O)c2cnccn2)cc1	-26%	7.4%	-40%	-1%	13%	-4%	u	8%
CC(C)(C)NC(=O)/C(=C/c1ccccc1F)NC(=O)c1ccc([N+](=O)[O-])cc1	1%	x	7%	5%	x	-17%	u	-2%
COc1ccc(C(=O)Nc2cc(Cl)ccc2Cl)c(OC)n1	20%	1.3%	u	-1%	-17%	-19%	13%	10%
OC(COc1c(F)cc(Br)cc1F)CN1CCOCC1 (stereo not given)	0%	x	x	7%	x	9%	x	1%
Cc1ccc(S(=O)(=O)Nc2cc(Cl)c3oc4c(c3c2)C(=O)CC(C)(C)C4)cc1	x	6.5%	0%[46.1 µM]	x	0%	x	u	14%
COC(=O)c1cc(C(=O)Nc2cc(C)ccn2)cc([N+](=O)[O-])c1	0%	-3.5%	u	-1%	-16%	5%	u	20%
CC(=O)Nc1sc(C)c(C)c1C(=O)OCC(=O)N(CC(C)C)C1CCS(=O)(=O)C1 (stereo not given)	4%	-3.0%	-5%	-8%	u	2%	u	-19%
COc1ccc(-c2ccc(=O)n(CC(=O)Nc3ccc4c(c3)OCCO4)n2)cc1	-1%	x	20%[46.1 µM]	5%	x	2%	-12%[46.1 µM]	-21%
CCOc1nc2cnccc2n(CC(=O)Nc2cccc(C)c2C)c1=O	3%	x	x	0%	x	6%	x	-5%
CC(=O)NCCC(=O)Nc1nc2ccc(Oc3ccccc3)cc2s1	0%	x	u	-17%	x	-1%	u	37%[activator]
COc1cccc(-c2cc(C(=O)N3CCc4ccccc4C3)no2)c1	-24%	-5.3%	2%	-41%	-6%	-13%	25%	25%
CCCC(=O)N1CCN(c2ccc([N+](=O)[O-])c(NC(C)c3ccccc3)c2)CC1 (stereo not given)	u	-11%	-1%	-57%	u	-7%[3.69 µM]	21%	7%
CC(C)OP(=O)(OC(C)C)C(Nc1ccc(C(=O)O)cc1)c1ccccc1 (stereo not given)	1%	x	x	5%	x	-3%	x	-23%
O=C(CC(=O)N/N=C\c1cccc(Cl)c1Cl)NCc1ccccc1	-9%	-2.3%	1%	24%	-13%	12%	0%	-5%
CCOc1ccccc1C1C(C(=O)N2CCCCC2)=C(C)Nc2nc3ccccc3n21 (stereo not given)	x	-2.1%	11%[46.1 µM]	x	9%	x	-13%[46.1 µM]	-19%
COc1ccccc1NC(c1cccnc1)c1ccc2cccnc2c1O (stereo not given)	4.5µM*	3.1%	u	-12%	3%	2%	u	-30%
COc1ccc(CCNC(=O)C2CCCN(S(=O)(=O)c3ccc(F)cc3)C2)cc1OC (stereo not given)	3%	x	28%	6%	x	11%	8%	u
CCOc1ccccc1C(=O)NCC(=O)NCC(c1ccco1)N1CCCCC1 (stereo not given)	2%	x	1%	x	x	4%	u	-5%
Cc1cccc(OCC(=O)Nc2nnn(C)n2)c1C	8%	1.3%	26%	-1%	1%	23%	-19%	7%
COc1ccc(-n2nc(C(=O)NCC(=O)NCCN(C)C)c3ccccc3c2=O)cc1	3%	x	x	-2%	x	1%	x	-25%
Cc1cc(C)n(CC(O)COc2ccccc2[N+](=O)[O-])n1 (stereo not given)	-14%	1.1%	22%	4%	6%	-25%	u	20%
COc1ccc(Cn2nnc3c(=O)[nH]c(C4CCCN(C(=O)c5ccccc5)C4)nc32)cc1 (stereo not given)	1%	1.7%	x	-9%	-13%	8%	x	-13%
CC(=O)NC(Cc1ccc(F)cc1)C(=O)O (stereo not given)	-5%	4.3%	4%	-18%	7%	2%	21%	8%
O=C(NNC(=O)c1ccc[nH]1)Nc1cc(Cl)cc(Cl)c1	1%	x	2%[46.1 µM]	4%	x	-12%	4%[46.1 µM]	-1%

Next compounds
SMILES	SARS PLP yeast	Cruzain Triton	Lassa entry inh	NS1 function inh	Cruzain noTriton	RE007 growth inh	Marburg entry inh	StopGo reporter
CNC(=O)c1ccccc1NC(=O)c1cccc(S(=O)(=O)N2CCCCC2)c1	0%	x	-18%	x	x	-12%	1%[46.1 µM]	3%
COc1ccc(C=C2SC(=S)NC2=O)cc1	x	x	-1%	x	x	-2%	u	18%
COc1ccccc1C(=O)OCC(=O)NCCNC(=O)COC(=O)c1ccccc1OC	-1%	x	10%	1%	x	-11%	u	-10%
COc1cc(-c2nc3n(n2)C(c2ccc(F)cc2)C2=C(CCCC2=O)N3)cc(OC)c1OC (stereo not given)	2%	-0.9%	10%	10%	u	6%	u	-11%
COc1ccc(N2CC(C(=O)NCc3nnnn3-c3ccc(C)c(C)c3)CC2=O)cc1 (stereo not given)	2%	6.8%	-10%&0%[46.1 µM]	-10%	-3%	-1%	-10%&-10%[46.1 µM]	5%&-12%
O=C(Nc1ccc2nn(-c3ccccc3)nc2c1)c1cc2ccccc2o1	x	2.0%	-8%[46.1 µM]	x	u	x	x	-14%
N=c1occ(C(=O)c2cc(F)ccc2O)cc1C(=O)NC1CCCCC1	-6%	x	7%[46.1 µM]	x	x	-14%	u	5%
Nc1cc(=O)[nH]c(SCC(=O)Nc2ccc(Br)cc2)n1	-1%	3.5%	-8%	5%	-8%	-4%	30%&30%	-18%
COc1ccc(CCC(=O)NC2CCC(C)CC2)cc1 (stereo not given)	-14%	x	-13%	-4%	x	11%	5%[46.1 µM]	11%
CC1=NN(C(=O)CSCc2ccccc2)C(O)(c2ccccc2)C1 (stereo not given)	0%	x	x	5%	x	0%	x	-17%
Cc1ccc(CNC(=O)CCCNC(=O)c2ccc(Cl)cc2)n1C	-9%	-4.4%	26%	1%	u	16%	21%	-1%
Cc1cccc(C(=O)NCCNC(=O)c2cnccn2)c1	-1%	x	-5%[46.1 µM]	3%	x	-3%	17%[46.1 µM]	5%
NS(=O)(=O)c1cccc(NC(=O)CCCNC(=O)c2ccc(Cl)cc2)c1	4%	x	17%[46.1 µM]	2%	x	4%	19%[46.1 µM]	19%
CCOC(=O)c1nc2sc3c(c2c(=O)n1C(C)C(=O)OCC)CCCC3 (stereo not given)	-1%	x	28%[46.1 µM]	-9%	x	8%	1%[46.1 µM]	-23%
Cc1cc(C)c(S(=O)(=O)Cc2ccc(Cl)cc2)c(=O)[nH]1	0%	x	31%[46.1 µM]	x	x	3%	1%[46.1 µM]	-3%

Compound activity as filed in PubChem BioAssay.
